# Sa ugtP lethal – kills S. aureus RN4220 lacking UgtP | 0.54% of 330,000 active | S. aureus RN4220 ugtP deletion, OD600 growth, 16 h; some inactives read as strong as hits | growth inhibition, % (concentration not given with the values) | AID 1259309;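 active = z-score under -3 and OD600 up to 0.15 on both plates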;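 note: plate controls were untreated wells for no effect and antibiotic for full effect; wells of about 80 µL received 100 nL stock; the first replicate is given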
# BJeLR lethal – kills HRASV12-expressing BJeLR cells | inhibition, % (test concentration not listed) | AID 1554 | 0.17% of 300,000 active | BJeLR (HRASV12) viability, CellTiter-Glo ATP luminescence, 48 h; reference of the scale not given here;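 active = replicate mean above 50%; inconclusive = above 50% but judged a plate artefact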;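 note: 50 nL library stock added to about 25 µL; numbers are from one replicate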
# RN4220 kill – kills Staphylococcus aureus RN4220; S. aureus RN4220 growth, OD600, 16 h; inhibition, % (concentration not given with the values); 0.33% of 330,000 active;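 active = z-score of -3 or lower and OD600 up to 0.18 on both plates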;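 note: plate controls were untreated cells for no effect and reference antibiotic for full effect; stock transfer was 100 nL into about 80 µL; one replicate is shown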
# Mtb hypoxia rep – Mtb hypoxia fluorescent reporter inhibition. AID 1159583. M. tuberculosis hypoxia-regulated fluorescent reporter, fluorescence. 0.1% of 300,000 active. fluorescence inhibition, % (test concentration not listed);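 active = 35 to 45% if threefold the growth effect, above 45% if 1.5-fold the growth effect; inactive = the rest, general growth blockers included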;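 note: wells of about 50 µL received 100 nL stock; 0% = vehicle wells and 100% = reference inhibitor wells; whole bacteria with a GFP reporter of the hypoxia response; strong numbers were not always called active; many hits fall short of the cut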
# PrP 5UTR inh – suppresses PrP 5' UTR mRNA reporter expression | 0.35% of 340,000 active | inhibition, % (concentration not given with the values) | cell-based PrP 5' UTR mRNA reporter, plate reader;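 active = every replicate at 50% or more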;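 note: 0 = median of the neutral control wells; tested in H4 reporter cells; numbers are from one replicate; inactives centre near -14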
# Bead autofluor – compound fluorescence in toxin protease inhibitor counterscreen. compound autofluorescence counterscreen, microsphere flow cytometry; hits give high values. fluorescence intensity (test concentration not listed). 3.1% of 360,000 active. AID 624483;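 active = at least 3 SD above the mean of all compounds, about 16000 in these data; inconclusive = too few beads counted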;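 note: 100 nL of 1 mM stock went into each well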
# Mtb hypoxia rep growth – also measured in Mtb hypoxia rep; calls as there; growth inhibition, %; measured here: M. tuberculosis growth (absorbance);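 0% = vehicle and 100% = reference antibiotic; read after six days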
# Active calls of the source: *; u = inconclusive; x = not tested or not shown.
# Every second line gives: Sa ugtP lethal	BJeLR lethal	RN4220 kill	Mtb hypoxia rep	Mtb hypoxia rep growth	PrP 5UTR inh	Bead autofluor
1) CCN1CCCC1CNC(=O)C1CCN(Cc2nc(-c3cccc(Br)c3)oc2C)CC1 (configuration not stated)
  3.2	-7.2	4.3	8.8	6.0	3.5	18142*
2) Cc1ccc(/C(=N/Nc2nc3ccccc3s2)C2=C(O)c3ccccc3C2=O)cc1
  x	7.9	x	x	x	-21.3	7036
3) CN(C)CCNC(=O)C12CC3(C)CC(C)(CC(C)(C3)C1)C2
  5.9	-9.1	0.8	x	x	-12.4	x
4) CCOC(=O)C1=NN(c2ccc(Cl)cc2)/C(=C/C2=NCCc3cc(OC)c(OC)cc32)S1
  1.0	1.7	1.5	2.1	-4.1	-26.2	4907
5) CCCCOC(=O)C1=C(C)Nc2ncnn2C1c1cc(OC)ccc1OC (configuration not stated)
  -13.4	4.1	3.8	7.9	11.1	-21.6	19006*
6) O=C(Nc1nncs1)c1cc(S(=O)(=O)N2CCOCC2)ccc1Cl
  7.9	6.3	0.1	3.6	1.6	-0.9	5817
7) Cc1ccc(-c2nnc3cccc(Cl)n23)cc1
  4.9	-0.4	3.2	0.5	2.9	-25.7	3319
8) CN=c1scc(C)n1/N=C/c1ccc(O)cc1O
  x	0.2	x	x	x	-24.3	2697
9) COc1ccc(Nc2nc(-c3cccc(OC)c3O)nc3ccccc23)cc1
  3.6	7.7	-3.5	-3.5	13.7	-24.1	3614
10) COC(=O)c1c(C)oc2ccc(N(C(=O)Oc3ccccc3)S(=O)(=O)c3ccccc3)cc12
  x	10.1	x	x	x	-5.9	2409
11) COc1ccc(S(=O)(=O)Nc2cccc(S(=O)(=O)NC3=NCCC3)c2)cc1[N+](=O)[O-]
  0.2	-0.8	0.0	-7.2	11.8	-14.3	5895
12) NS(=O)(=O)c1ccc(CNC(=O)c2cc(-c3cccs3)nc3ccccc23)cc1
  -11.8	-19.2	2.4	-4.0	-4.5	-6.5	4016
13) Brc1ccccc1-n1nnc(-c2cnc3ccccc3c2)n1
  x	6.1	x	x	x	-5.9	3686
14) Cc1ccc(NC(=O)C(=O)NCCN2CCN(C(=S)Nc3ccccc3)CC2)cc1
  2.2	3.5	0.6	-21.6	6.1	-5.7	2599
15) CN1C(=O)CSC1=NNC(=O)COc1cccc2cccnc12
  1.2	x	-1.0	3.6	0.5	x	x
16) CC(=O)Oc1ccc2c(=O)c(N3C(=O)c4ccccc4C3=O)c(C)oc2c1
  5.5	-1.7	6.7	4.6	0.1	-21.0	2475
17) Cc1[nH]nc2c1C(c1cccs1)C1=C(CCCC1=O)N2 (configuration not stated)
  8.8	-3.5	8.3	-12.0	-5.9	-15.7	4199
18) COc1ccc(Br)cc1/C=C/C(=O)Nc1ccc(C)cc1
  x	7.7	x	x	x	-7.5	2202
19) CCc1ncc(CN2CCCCC2C(=O)Nc2ccc(Oc3ccccc3)nc2)cn1 (configuration not stated)
  3.3	2.9	0.4	-0.1	2.0	-2.1	6043
20) COc1ccc(-c2ccc(C3C4C=CCC[C@@]4(C)C(=O)N3Cc3ccccc3)c(F)c2)cc1 (some centres not stated)
  11.9	x	1.8	11.0	10.9	x	x
21) CC(=O)Nc1cccc(-c2cc(C)c3cc4c(cc3n2)OCO4)c1
  3.5	19.2	11.0	-3.4	-4.9	-26.8	3351
22) O=C(Nc1ccccc1N1CCCCC1)c1cnccn1
  0.1	5.8	4.8	20.7	4.0	-14.6	3811
23) COc1cccc(N(CC(=O)NC2CC3CCC2C3)S(=O)(=O)c2ccccc2)c1 (configuration not stated)
  9.0	-6.6	4.9	6.9	9.5	-5.2	3609
24) COc1ccc(O)c(CNn2c(-c3ccc(Br)cc3)nc3ccccc3c2=O)c1
  -1.3	2.4	2.0	-2.1	18.1	-26.9	2733
25) CCOc1ccc(NC(c2ccccc2)P(=O)(OC)OC)cc1 (configuration not stated)
  0.3	10.7	4.1	-4.6	-9.9	-31.7	4031
26) CCn1nnnc1SCC(=O)N1CCc2ccccc21
  5.6	-5.6	8.0	-9.7	14.8	-7.6	2495
27) CCc1nc2ccccc2n1Cc1ccccc1OC
  2.0	-2.5	2.1	x	x	-23.0	2792
28) Cc1ccc2c(COC(=O)C34CC5CC(CC(C5)C3)C4)cc(=O)oc2c1
  0.2	-9.9	8.5	5.3	2.2	-67.1	2405
29) NC(=O)c1ccsc1NC(=O)C1CCN(S(=O)(=O)c2cccs2)CC1
  9.0	4.3	5.7	9.6	-3.2	-12.9	u
30) COc1cc(CNC(=O)CCC(=O)N2C[C@H]3C[C@H](C2)c2cccc(=O)n2C3)cc(OC)c1OC
  5.0	3.3	-1.2	x	x	-3.9	4972
31) CN(C)S(=O)(=O)c1ccc(N2CCOCC2)nc1
  3.7	0.0	4.8	8.6	17.4	-13.7	10948
32) C=C1CCC[C@]2(C)C[C@H]3OC(=O)C(CN4CC(C)OC(C)C4)[C@H]3C[C@@H]12 (some centres not stated)
  -3.0	-1.6	1.3	-4.4	7.5	5.2	3968
33) Cc1ccccc1-n1nc(C(=O)c2cccs2)cc(-c2nc3ccccc3[nH]2)c1=N
  -8.7	-8.6	1.5	-1.7	5.0	0.6	6646
34) O=C(c1ccc2c(c1)OCO2)N1CCc2ccccc21
  8.4	1.6	6.0	3.3	5.1	-17.7	3864
35) O=C(CNC(=O)C12CC3CC(CC(C3)C1)C2)OCC(=O)N1CCCCC1
  1.0	-4.9	-1.0	-12.8	-3.9	-9.3	u
36) COc1ccc(/C=C/c2ccc3cccc(O)c3n2)c(OC)c1OC
  -20.9	8.2	6.9	5.3	-0.8	-31.2	2739
37) CC(=O)c1c(C)[nH]c(C(=O)N2CCN(c3ccc(F)cc3)CC2)c1C
  -4.1	4.0	-4.5	4.7	14.0	-8.6	23763*
38) CCCCNC(=S)N(C)/N=C/c1ccc(OCC(=O)Nc2ccc(OC)cc2)c(OC)c1
  x	7.2	x	x	x	-0.7	2005
39) Cc1onc(-c2ccccc2)c1NC(=O)N(CCC#N)Cc1cccs1
  3.6	2.9	2.4	6.0	12.1	-11.0	4294
40) Cc1ccsc1C=NNC(=O)c1nnn(-c2nonc2N)c1-c1ccc2c(c1)OCO2
  3.7	x	6.0	-1.4	-6.9	x	x
41) Cc1sc(NC(=O)Cn2cnnn2)nc1-c1ccc(Cl)cc1
  -6.6	2.9	0.7	7.3	8.1	-28.7	4133
42) O=C(Nc1ccc2c3c(cccc13)CC2)c1ccco1
  8.4	-13.8	7.8	x	x	-18.6	2792
43) O=[N+]([O-])c1ccc(N2CCCCC2)c(-c2nn[nH]n2)c1
  -3.1	8.9	2.1	-0.7	4.4	-9.6	3259
44) CCC(=O)OCCn1c(=O)c2ccccc2c2ccccc2c1=O
  3.6	11.9	-0.8	2.1	4.9	-9.0	4414
45) CCOc1ccc(NC(=O)CCc2nnc3ccc(N4CCC(C)CC4)nn23)cc1
  2.2	1.7	0.4	x	x	-1.2	5188
46) C/C(=N\NC(=S)Nc1cc(S(=O)(=O)N2CCOCC2)ccc1Cl)c1ccccc1F
  x	5.5	x	x	x	13.0	1899
47) COc1cccc(N2C(=O)CC(N3CCN(c4ccc([N+](=O)[O-])cc4)CC3)C2=O)c1 (configuration not stated)
  7.1	-1.4	5.7	-2.0	3.5	-23.0	4262
48) COc1ccc(/C=N/Nc2ccc(C(=O)O)cc2)cc1Br
  x	7.6	x	x	x	19.9	4798
49) CN(C)S(=O)(=O)N1CCC(Cc2ccccc2)CC1
  4.2	-9.7	6.7	18.7	15.3	-27.6	3971
50) O=C(NCCN1CCN(C(=O)c2ccc(F)cc2)CC1)c1ccc(F)cc1
  7.9	2.8	3.0	8.4	-3.0	-4.9	4283
51) Cc1c(C(=O)NCc2ccc3c(c2)OCO3)oc2ccc(S(=O)(=O)N3CCCCC3)cc12
  -7.4	1.9	0.4	7.4	7.7	-4.0	11350
52) O=C(Nc1ccccc1F)C(c1ccccc1)c1ccccc1
  25.1	-1.5	0.1	-5.4	8.0	-9.2	4076
53) CN(C)/C=N/c1nc2ccc3c(c2s1)CCCC3
  x	-4.8	x	x	x	-119.4	9380
54) O=c1onc(-c2cccnc2)n1-c1ccccc1F
  10.4	11.1	2.9	3.8	5.9	-11.1	x
55) COc1cc(C(N)=O)cc(Cl)c1OC
  0.4	1.4	0.7	3.8	-1.5	-20.4	3651
56) COC(=O)c1sccc1NC(=O)COc1ccc(Cl)cc1
  23.5	-0.2	5.8	2.9	2.9	-12.2	2351
57) CCCn1c(=O)c(C(=O)Nc2cc(C)ccn2)c(O)c2ccccc21
  11.7	-8.0	8.9	10.9	-0.6	-18.6	3937
58) CCOC(=O)C1(NC(=O)C2(N3C(=O)c4ccccc4C3=O)CCCC2)CCCC1
  -3.9	x	4.2	-2.5	-1.7	-7.7	2828
59) Cn1c(=O)c2[nH]c(N3CCN(c4ccccn4)CC3)nc2n(C)c1=O
  -0.4	-1.4	-1.0	-22.8	-3.6	x	x
60) COc1cccc(OC)c1OCCCOc1cccc2cccnc12
  1.7	10.8	1.1	9.3	0.6	-20.8	4203

# Other structures
# Every second line gives: Sa ugtP lethal	BJeLR lethal	RN4220 kill	Mtb hypoxia rep	Mtb hypoxia rep growth	PrP 5UTR inh	Bead autofluor
61) Cc1[nH]c2ccccc2c1C(=O)CSc1ncn[nH]1
  -4.9	5.9	2.5	x	x	-13.1	4980
62) CCc1cc(C(=O)Nc2ccc(C)cc2Br)cs1
  15.1	7.1	13.1	16.2	8.1	-69.3	6538
63) COc1ccc(CC(=O)N/N=C/c2ccc(Cl)s2)cc1OC
  x	1.6	x	x	x	1.5	3166
64) CN(Cc1ccon1)C(=O)CCc1nnc(Cc2ccc(-c3ccccc3)cc2)o1
  0.1	3.5	7.9	15.0	11.4	-25.1	4345
65) Cc1nc(N=Cc2ccc(N(C)C)cc2)sc1C
  4.3	x	5.7	4.8	4.9	x	x
66) O=C(CSc1nnc2nnc3ccccc3n12)N1CCOCC1
  0.8	-2.7	3.6	-4.4	-1.5	-18.9	5994
67) Cc1ccc(S(=O)(=O)Nc2cccc(N(C)S(C)(=O)=O)c2)cc1[N+](=O)[O-]
  3.0	2.1	15.7	3.9	14.2	-31.0	4896
68) S=c1nc(-c2ccccc2)[nH]c2ccccc12
  2.1	-4.2	-2.3	1.8	7.2	-43.2	4301
69) C/C(C=Nn1c(-c2n[nH]c3c2CCC3)n[nH]c1=S)=C\c1ccco1
  -7.9	x	10.7	-2.2	8.0	x	x
70) Cc1ccc(C(=O)Nc2nnc(C)s2)cc1
  -2.9	-6.6	-4.1	-8.3	1.0	-57.7	5005
71) COc1ccc(S(=O)(=O)N(C)CC2Oc3c(NC(=O)c4ccncc4)cccc3C(=O)N(C(C)CO)CC2C)cc1 (configuration not stated)
  -10.4	x	4.4	3.2	8.5	x	x
72) N#CCCN1CCN(S(=O)(=O)c2ccc(S(=O)(=O)NCC3CCCO3)cc2)CC1 (configuration not stated)
  -1.6	-1.1	7.3	x	x	-2.1	5878
73) Cc1ccc(NC(=O)C(NC2CCCc3ccccc32)c2ccccc2)cc1Cl (configuration not stated)
  17.6	4.5	-10.7	-2.3	-6.5	-13.6	2079
74) COc1ccc(NS(=O)(=O)c2cc3c4c(c2)CCN4C(=O)CC3)cc1OC
  -2.8	9.1	-2.0	-0.7	-3.0	-18.1	4148
75) CCOP(=O)(OCC)C(NC(=O)Nc1ccc(Cl)cc1)c1ccccc1 (configuration not stated)
  6.3	2.1	-4.6	10.0	6.2	-10.4	2592
76) CC1CCCC(NC(=O)c2cccc(N3CCCC3=O)c2)C1C (configuration not stated)
  -0.3	-1.8	6.6	6.0	6.4	-22.7	2560
77) CCCCCC(=O)NN=C(C)c1ccc(N2CCCCC2)cc1
  4.9	x	4.2	11.9	12.4	x	x
78) CCC1(C)Cc2nc(Cl)c(C#N)cc2CO1 (configuration not stated)
  -1.6	-0.8	5.9	8.2	7.8	-14.3	4145
79) NS(=O)(=O)c1ccc(NNC(=O)c2cccs2)cc1
  5.6	-6.4	5.4	0.1	4.0	-49.8	3657
80) COc1ccc(S(=O)(=O)Nc2ccccn2)cc1C(=O)Nc1ccccc1
  -5.2	7.0	-4.8	3.1	-22.3	-6.5	6532

# An excerpt from further up:
# Every second line gives: Sa ugtP lethal	BJeLR lethal	RN4220 kill	Mtb hypoxia rep	Mtb hypoxia rep growth	PrP 5UTR inh	Bead autofluor
78) CCC1(C)Cc2nc(Cl)c(C#N)cc2CO1 (configuration not stated)
  -1.6	-0.8	5.9	8.2	7.8	-14.3	4145
79) NS(=O)(=O)c1ccc(NNC(=O)c2cccs2)cc1
  5.6	-6.4	5.4	0.1	4.0	-49.8	3657
